From PubChem
Rce1 inhib – yeast Ras-converting enzyme inhibition. Q03530. yeast membranes, quenched prenylated peptide cleavage fluorescence. calls only. 290,000 tested, 0.27% active. AID 2563;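 active means fall in fluorescence gain of 50% or more versus controls, with final raw signal at or below 3038400; inconclusive means same 50% fall but final raw signal above 3038400; inactive means fall in fluorescence gain under 50%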;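 further: plate controls were neutral control wells for no effect and wells lacking membranes for full effect; tested at 10 µM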
PABP FP inh – PABP-poly(A) binding inhibition; P11940; PABP-poly(A) RNA binding, fluorescence polarization; inhibition, % at 35 µM; 290,000 tested, 1% active;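 active means 50% or more with normal probe brightness, or confirmed in later tests; inconclusive means above 50% with abnormal brightness, or retests that disagree; inactive means below 50% or failed in later tests; about a fifth of its hits are not listed in these tables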;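 further: calls also rest on retests at 20 µM and on dose response follow-up; controls were probe without protein and protein plus probe with vehicle; some compounds called inactive have numbers as strong as hits; many hits fall short of the cut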
Target sequence (P11940 whole entry, looked up): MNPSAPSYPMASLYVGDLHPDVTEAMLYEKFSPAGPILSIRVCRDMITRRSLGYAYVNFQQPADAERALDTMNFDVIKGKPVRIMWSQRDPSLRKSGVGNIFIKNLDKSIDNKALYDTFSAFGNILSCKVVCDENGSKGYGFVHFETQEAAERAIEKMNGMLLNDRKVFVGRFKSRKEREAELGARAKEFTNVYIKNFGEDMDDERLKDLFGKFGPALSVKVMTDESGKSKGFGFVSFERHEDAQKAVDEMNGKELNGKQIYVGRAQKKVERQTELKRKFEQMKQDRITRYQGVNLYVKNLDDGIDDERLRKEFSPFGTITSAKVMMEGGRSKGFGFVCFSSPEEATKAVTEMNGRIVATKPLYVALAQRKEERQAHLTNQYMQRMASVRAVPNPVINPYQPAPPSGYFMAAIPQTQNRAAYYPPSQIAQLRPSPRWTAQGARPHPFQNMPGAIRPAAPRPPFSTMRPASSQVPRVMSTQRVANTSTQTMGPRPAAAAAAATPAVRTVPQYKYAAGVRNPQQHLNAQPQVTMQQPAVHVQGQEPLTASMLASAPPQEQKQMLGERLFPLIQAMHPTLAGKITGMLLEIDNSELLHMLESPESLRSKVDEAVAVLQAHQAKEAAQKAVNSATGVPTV
Env fusion inh – HIV envelope-mediated fusion inhibition; inhibition, % at 12.3 µM; HeLa-JRFL Env/CEM21 cell fusion, luciferase; 360,000 tested, 1.1% active;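 active means mean replicate inhibition score of at least 50 and every replicate individually at or above 50; inconclusive means only one of the two criteria met; inactive means mean below 50 and not all replicates reaching 50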;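 further: 0% = plate neutral controls and 100% = maraviroc near 300 nM; one replicate is shown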
eIF4H inh – inhibitors of RNA binding by human eIF4H. eIF4H fluorescence polarization binding assay. AID 2012. inhibition, % at 35 µM. 290,000 tested, 0.94% active;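 active means 50% or more with normal probe brightness, or confirmed in later tests; inconclusive means above 50% with abnormal brightness, or retests that disagree; inactive means below 50% or failed in later tests; about a fifth of its hits are not listed in these tables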;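 further: calls also rest on retests at 20 µM and on dose response follow-up; 0% = protein and probe with vehicle and 100% = probe without protein; strong numbers were not always called active; many hits fall short of the cut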
CSC inhib – cancer stem cell inhibition; AID 2717; 300,000 tested, 1.1% active; inhibition, % at 7.5 µM; cancer stem cell-like cells viability, luminescence;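 active means mean at 75% or more and at least half the replicates too; inconclusive means mean and replicates disagree; tested in HMLE shEcad cells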;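 further: 0% = median of negative and 100% = median of positive control wells; the first replicate is given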
MT1-MMP act inh – inhibitors of human MT1-MMP activation | 360,000 tested, 0.061% active | HT1080 RFP-PRO-GFP cells, GFP/RFP ratio fluorescence, overnight; percent of plate control window, DMSO zero | AID 651647 | P50281 | GFP/RFP ratio change, % at 20 µM;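 active means GFP/RFP ratio change of at least 30% with cell ATP level not reduced by more than half and red fluorescence within 50% of control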; further: strong numbers were not always called active
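Assay system: RFP-PRO-GFP reporter HT1080 cells; read-out basis: GFP/RFP fluorescence ratio; benchmarks: DMSO wells and RFP-L50D-GFP cells; doses: 20 µM single dose, 1% DMSO; schedule: overnight cell settling, then overnight compound exposure, 37 °C, 5% CO2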
UUG fidelity – alters start codon recognition fidelity in yeast; S. cerevisiae UUG-firefly luciferase reporter, luminescence/redox ratio; activity score, % at 18.7 µM; 350,000 tested, 0.13% active;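 active means replicate mean at a twofold rise or more, about +100% in these data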;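 further: firefly luciferase made from a UUG start codon reports start codon fidelity; reporter light over untreated wells divided by growth signal over untreated wells; some hits fall short of that in this replicate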
PABP FP inh retest – also measured in PABP FP inh; calls as there; inhibition, %; compound at 20 µM; confirmation repeats;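 mean of two retest wells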
MT1-MMP act inh RFP – second read-out of MT1-MMP act inh, no call of its own (marks repeat the call); RFP signal change, %; measured here: RFP expression control read;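 0 = vehicle wells; hits needed this value within 50% of zero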
An asterisk follows results filed as active; i = inactive; u = inconclusive; x = not tested or not shown; [ ] = remark or other dose.

SMILES	Rce1 inhib	PABP FP inh	Env fusion inh	eIF4H inh	CSC inhib	MT1-MMP act inh	MT1-MMP act inh RFP	UUG fidelity	others
Cc1ccc2cc(CCNC(=O)c3cccc([N+](=O)[O-])c3)c(=O)[nH]c2c1	i	45	-1	8	-12	4	-5	x
Cc1ccc(NC(=O)c2cc(NC(=O)C3CC=CCC3C(=O)O)ccc2N2CCOCC2)cc1 (stereo not drawn)	i	1	x	3	x	3	-1	-3
CC(CN1CCOCC1)C(=O)c1ccccc1 (stereo not drawn)	i	21	-4	-9	-8	-6	2	4
COc1ccc(/C(C)=N/Nc2nccnc2Cl)cc1	x	x	-37	x	-15	-3	-1	-24
COCCn1c(C)cc(C(=O)COC(=O)CNC(=O)c2ccccc2)c1C	i	2	14	2	-9	3	5	x
Cc1ccc(N(CC(=O)NCc2ccc(F)cc2)S(=O)(=O)c2c(C)n[nH]c2C)cc1	i	7	14	-1	-8	-2	-2	x
COc1cccc(N2CCN(C(=O)c3ccc(CS(=O)c4ccccc4C)o3)CC2)c1 (stereo not drawn)	i	11	-459	-2	54	11	-5	-4
COC(=O)c1sc(S(=O)(=O)Nc2ccc(C)cc2)c(C(=O)OC)c1C	i	-3	4	3	4	2	3	x
COCC(C)n1c(C)cc(C(=O)CSc2nc3ccccc3c(=O)[nH]2)c1C (stereo not drawn)	i	28	34	22	3	1	-10	-6
COC(=O)C[C@@H]1CC[C@@H](NS(=O)(=O)c2ccc(OC)cc2)[C@@H](CO)O1	x	x	-1[16.7 µM]	x	x	-1	3	-7
O=C(c1ccco1)n1nc(NCc2ccccc2)nc1NCc1ccccc1	i	3	x	14	5	4	-3	-3
COc1ccccc1OCC(=O)NNC(=O)C(=O)N1CCCC1	i	7	-28	-12	-12	3	3	-5
O=C(O)c1ccccc1NCc1cccs1	i	23	4	8	-9	-9	-3	-2
CCCCn1c(N)c(N(CCC(C)C)C(=O)COC(=O)c2ccccc2)c(=O)[nH]c1=O	i	-10	-19	6	-8	-3	3	x
CC1CCN(c2c(NCc3ccc(C(=O)NCC4COc5ccccc5O4)cc3)c(=O)c2=O)CC1 (stereo not drawn)	i	x	-4	x	-8	2	-4	-6
COc1ccccc1CNC(=O)c1oc2ccc(S(=O)(=O)N3CCOCC3)cc2c1C	i	18	-8	4	-8	4	-3	-6
O=C1c2ccccc2C(=O)N1CCn1nc(Cl)nc1Cl	i	5	x	-4	2	-1	1	-51
NC(=O)c1c(NC(=O)c2cccc(N3C(=O)CCC3=O)c2)sc2c1CCCCC2	i	-6	29	-4	1	-4	0	-5
Nc1ccccc1SCC(=O)Nc1ccc2c(c1)OCCO2	i	5	3	4	-1	1	0	-27
Cc1ccc(C)c(N(CC(=O)N/N=C/c2ccc(-c3ccc([N+](=O)[O-])cc3)o2)S(=O)(=O)c2ccccc2)c1	i	27	x	u	-2	-6	1	-17	PABP FP inh retest=29
Cc1cc(C)n2nc(SCC(=O)NC3(C#N)CCCCC3)nc2n1	x	x	-26	x	x	-2	4	-2
CC(=O)Nc1ccc(NS(=O)(=O)c2cc(Cl)ccc2Cl)cc1	i	-3	19	-6	-3	3	1	-8
CC(C)Oc1ccc(N2CC(C(=O)NC3=NCCS3)CC2=O)cc1 (stereo not drawn)	i	-3	5	3	1	2	-1	x
Cc1cc2ncn(C(=O)N3CCCCCC3)c2cc1C	i	4	-17	2	5	12	7	-22

By substructure: the compounds so far with a nitro group on carbon (2)
SMILES	Rce1 inhib	PABP FP inh	Env fusion inh	eIF4H inh	CSC inhib	MT1-MMP act inh	MT1-MMP act inh RFP	UUG fidelity	others
Cc1ccc2cc(CCNC(=O)c3cccc([N+](=O)[O-])c3)c(=O)[nH]c2c1	i	45	-1	8	-12	4	-5	x
Cc1ccc(C)c(N(CC(=O)N/N=C/c2ccc(-c3ccc([N+](=O)[O-])cc3)o2)S(=O)(=O)c2ccccc2)c1	i	27	x	u	-2	-6	1	-17	PABP FP inh retest=29

Structures from the list above containing an aryl methoxy group:
SMILES	Rce1 inhib	PABP FP inh	Env fusion inh	eIF4H inh	CSC inhib	MT1-MMP act inh	MT1-MMP act inh RFP	UUG fidelity	others
COc1ccc(/C(C)=N/Nc2nccnc2Cl)cc1	x	x	-37	x	-15	-3	-1	-24
COc1cccc(N2CCN(C(=O)c3ccc(CS(=O)c4ccccc4C)o3)CC2)c1 (stereo not drawn)	i	11	-459	-2	54	11	-5	-4
COC(=O)C[C@@H]1CC[C@@H](NS(=O)(=O)c2ccc(OC)cc2)[C@@H](CO)O1	x	x	-1[16.7 µM]	x	x	-1	3	-7
COc1ccccc1OCC(=O)NNC(=O)C(=O)N1CCCC1	i	7	-28	-12	-12	3	3	-5
COc1ccccc1CNC(=O)c1oc2ccc(S(=O)(=O)N3CCOCC3)cc2c1C	i	18	-8	4	-8	4	-3	-6

Next part
SMILES	Rce1 inhib	PABP FP inh	Env fusion inh	eIF4H inh	CSC inhib	MT1-MMP act inh	MT1-MMP act inh RFP	UUG fidelity	others
COc1ccc(-c2noc(CCC(=O)NCCc3ccccc3)n2)cc1	i	-4	8	-6	9	3	2	3
O=C(CC1(O)C(=O)Nc2ccccc21)c1cccc(-n2cccc2)c1 (stereo not drawn)	i	-7	1	0	1	-1	5	-17
O=C(CN1C(=O)c2ccccc2C1=O)Nc1cc(C(=O)O)cc(C(=O)O)c1	i	-17	-13	-13	-3	-2	1	-20
CCC(=O)Nc1ccc(S(=O)(=O)Nc2ccccn2)cc1	i	-13	15	-5	2	3	6	x
COc1ccc(Cc2nc(=S)[nH][nH]2)cc1Br	i	3	-2	8	-12	4	5	-27
Nn1c(SCC(=O)Nc2ccc(S(N)(=O)=O)cc2)nnc1-c1ccco1	i	4	5	3	-30	-5	0	-9
Cc1nnsc1C(=O)N1CCCC(N2CCN(c3ccc(F)cc3)CC2)C1 (stereo not drawn)	i	0	-9	-9	-10	0	0	-11
CC1=C(c2ccccc2)CCC1=O	i	x	-9	x	-24	-4	-1	-14
O=C(O)CCCn1nc(-c2ccccc2)c2ccccc21	i	-13	u	3	-9	-5	2	-14
CC12CC3(C)CC(C)(C1)CC(C(=O)NC(=S)NC(C)(C)C)(C2)C3	i	0	-1	-1	x	-7	-7	x
O=C(Nc1ccc(N2CCOCC2)c(Cl)c1)c1ccc([N+](=O)[O-])o1	i	4	i	23	x	6	-9	x
Cc1cc(C(=O)OCC(=O)c2cccc([N+](=O)[O-])c2)c2cccc(C)c2n1	i	-4	x	13	-7	6	2	-6

Reprinted from the part before: 6 entries; new compounds follow.
SMILES	Rce1 inhib	PABP FP inh	Env fusion inh	eIF4H inh	CSC inhib	MT1-MMP act inh	MT1-MMP act inh RFP	UUG fidelity	others
Cc1nnsc1C(=O)N1CCCC(N2CCN(c3ccc(F)cc3)CC2)C1 (stereo not drawn)	i	0	-9	-9	-10	0	0	-11
CC1=C(c2ccccc2)CCC1=O	i	x	-9	x	-24	-4	-1	-14
O=C(O)CCCn1nc(-c2ccccc2)c2ccccc21	i	-13	u	3	-9	-5	2	-14
CC12CC3(C)CC(C)(C1)CC(C(=O)NC(=S)NC(C)(C)C)(C2)C3	i	0	-1	-1	x	-7	-7	x
O=C(Nc1ccc(N2CCOCC2)c(Cl)c1)c1ccc([N+](=O)[O-])o1	i	4	i	23	x	6	-9	x
Cc1cc(C(=O)OCC(=O)c2cccc([N+](=O)[O-])c2)c2cccc(C)c2n1	i	-4	x	13	-7	6	2	-6
CC(=O)NCC(=O)OCC(=O)Nc1ccc(C(C)=O)cc1	i	-6	x	-10	-12	-3	0	-7
COc1ccccc1NS(=O)(=O)c1ccc(C(=O)NCC(c2cccs2)N2CCOCC2)cc1 (stereo not drawn)	x	x	x	x	4	2	-1	8
CC(C)NC(=O)NC(=O)COC(=O)c1ccc(S(=O)(=O)NCc2ccco2)cc1	x	x	x	x	5	-2	0	1
CS(=O)(=O)C1=NSC2=NC(=O)/C(=C\c3ccc(OC(=O)c4ccco4)c(Br)c3)C(=N)N21	i	7	-6	4	-7	-58	8	7
Cc1ccc(C(=O)N/N=C\c2sccc2C)cn1	i	4	-4	-8	4	2	5	x
COC(=O)c1ccccc1NC(=O)CSc1nc(O)c(-c2ccccc2)c(=O)[nH]1	i	18	-4	16	-4	0	5	x
Cc1sc2cc3c(c(C(=O)c4ccccc4)[n+]2c1C)-c1cccc2cccc-3c12	i	41	18	11	35	x	x	x
O=C(Nc1ccc2[nH]c(=O)[nH]c2c1)c1ccc(Cl)c(Cl)c1	i	-6	0	-15	3	3	0	x
CC(C)C(O)(C#CCN1CCCC1)c1ccccc1 (stereo not drawn)	i	2	x	-6	-8	-7	-3	x
O=C(Nc1ccccc1OC(F)F)c1oc2ccccc2c1COc1ccccc1	i	-9	-86	-9	8	1	-2	-9
COc1cccc(-n2c(SCC(=O)Nc3cc(C)on3)nc3c([nH]c4ccccc43)c2=O)c1	i	-20	4	-3	-12	-6	-3	-18
CC(C)CCNC(=O)/C=C/c1ccc(Br)cc1	i	-4	-20	-2	0	-14	-1	-8
Oc1c(CN2CCCC2)cc(COCc2ccccc2)c2cccnc12	x	x	2	x	x	0	-10	-36
Fc1ccc2[nH]c3c(c2c1)CN(C(=S)NCc1ccccc1)CC3	i	3	9	4	73	12	0	x
COc1cc(CNC(=O)Nc2nnc([C@@H]3C[C@H](O)[C@@H](CO)O3)s2)cc(OC)c1OC	x	x	-10	x	x	0	5	-8
CCCCC(CC)C(=O)Oc1ccc(O)c(C(C)(C)C)c1 (stereo not drawn)	i	4	26	6	-6	3	-3	0
O=C(Nc1ccc(SC(F)F)cc1)C1CC(=O)N(Cc2ccccc2)C1 (stereo not drawn)	i	4	10	5	14	5	0	6
N#Cc1c(NC(=O)CSc2nc(-c3ccccc3)cc(C(F)(F)F)n2)sc2c1CCC2	i	8	29	-2	7	1	1	-8
O=C(CCC(=O)Nc1ccccc1)NNS(=O)(=O)c1ccc(Cl)cc1	i	-8	10	-4	-2	-4	2	4
C[N+]1(CC(=O)Nc2ccc(F)cc2)CCN(C(=O)c2ccco2)CC1	i	29	-56	-9	-8	-4	-1	-16
CCC(NS(=O)(=O)c1ccc(C)cc1)C(=O)N1CCC2(O)CCCCC2C1 (stereo not drawn)	i	10	x	-6	-10	8	12	-18
O=C(CN1C(=O)CC(c2ccccc2)S(=O)(=O)c2ccccc21)N1CCOCC1 (stereo not drawn)	i	12	x	4	-12	x	x	x
O=C(O)Cc1ccc(NC(=O)c2ccc3c(c2)C(=O)N(Cc2ccccc2)C3=O)cc1	x	x	0	x	x	0	1	-15
Cn1c(=O)oc2cc(S(=O)(=O)Nc3ccc4c(c3)OCCO4)ccc21	i	87*	7	75*	-12	-2	-6	-16
COc1ccccc1N1CCN(C(=O)c2c(-c3c(Cl)cccc3Cl)noc2C)CC1	i	7	x	0	9	-2	0	-4
O=C(Nc1ccccc1C(=O)O)c1ccc(Br)c(S(=O)(=O)NCc2ccccc2)c1	i	2	4	-10	8	-2	2	x
COc1ccccc1OCCCn1c(=O)oc2ccccc21	i	-2	x	-4	2	-1	2	-4

An excerpt; count on the stated rates, not on these rows.
